VDR inh: inhibitors of human vitamin D receptor. P11473. VDR-SRC2-3 peptide fluorescence polarization, 2 h. Potency, µM, inactives show max response, negative = inhibition, usual class: inhibitors. AID 504847. 400,000 tested, 0.93% active; active = well fitted inhibition curve with a large enough effect; inconclusive = small, poorly fitted or top-dose-only effect, or another doubt; inactive = no such curve, though single readings can be large or run the other way; also: series mostly up to about 120 µM
Target sequence (P11473 whole entry, looked up): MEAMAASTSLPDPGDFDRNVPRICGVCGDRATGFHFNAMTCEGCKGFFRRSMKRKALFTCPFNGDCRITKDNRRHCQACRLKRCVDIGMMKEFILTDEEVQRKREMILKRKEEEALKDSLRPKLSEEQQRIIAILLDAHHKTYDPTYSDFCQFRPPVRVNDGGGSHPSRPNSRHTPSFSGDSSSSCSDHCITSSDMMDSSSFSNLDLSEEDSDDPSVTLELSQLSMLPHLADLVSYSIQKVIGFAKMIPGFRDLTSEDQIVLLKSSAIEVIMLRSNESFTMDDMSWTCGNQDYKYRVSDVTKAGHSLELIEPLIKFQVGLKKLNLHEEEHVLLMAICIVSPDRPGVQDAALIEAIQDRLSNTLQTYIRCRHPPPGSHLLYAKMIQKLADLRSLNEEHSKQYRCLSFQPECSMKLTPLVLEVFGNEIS
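The screen uses fluorescence polarization to detect compounds that interfere with recruitment of the SRC2-3 coactivator peptide to VDR; plates are read after 2 h at room temperature.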
The depositor's hits bear a star; ? = inconclusive; & = joins results of further samples; [ ] = another dose, or the depositor's remark. % is scaled to controls: 0 for no effect and ±100 for the full control effect; potency is read from the fitted curve at half-maximal effect.

SMILES	VDR inh
O=C(CSc1nnnn1-c1ccccc1)N1N=CCC1c1ccccc1 (stereo not given)	7.7%
CCCOc1ccc2c(=O)c(N3C(=O)c4ccccc4C3=O)c(C)oc2c1	5.3%
COc1ccc(S(=O)(=O)NC2CC2)cc1C(=O)N1CCOCC1	?
COc1cc(Br)c(CC(=O)O)cc1OC	-6.9%
COc1ccc(CN2C(=O)c3cccnc3C2Nc2ccc(OC)c(Cl)c2)cc1 (stereo not given)	-11.7%
CCN(CC)C(=O)c1ccc(-c2nnc(Nc3ccc(C(=O)N(C)C)cc3)c3ccccc23)cc1	14.7%
COc1ccccc1Cn1ccn(CC(=O)Nc2c(C)cc(C)cc2C)c(=O)c1=O	-4.6%
COc1cc(/C=N/OCC(=O)Nc2cc(C)cc(C)c2)ccc1OCc1ccc(Cl)cc1	-4.8%
CNC(=O)CN1C(=O)c2cccc3cccc1c23	0.1%
Cc1ccc(C)c(NC(=O)CSc2nnc(-c3ccco3)o2)c1	-6.2%
COc1cccc(/C=N/NC(N)=S)c1OCc1ccccc1Cl	-17.6%
COCCCNC(=O)Cc1c(C)c2c(cc(C)c3c(C(C)(C)C)coc32)oc1=O	9.4%
CCOc1ccc(-c2c(C)nn3c(C)c(C(=O)NCCN(C)C)cnc23)cc1OCC	1.6%
O=C1C=Cc2cccc3ccc(O)c1c23	2.8%
CN1CCN(C(=O)/C(C#N)=C/c2ccc(F)cc2)CC1	-7.1%
CCOc1ccc(CCNC(=O)Cn2nnc(-c3ccccc3)n2)cc1OCC	-0.5%
O=c1cc(CSc2ccccn2)nc(N2CCN(c3ccccc3)CC2)[nH]1	-6.0%
CCCC(C(=O)NCCC(C)C)N(Cc1ccc(F)cc1)C(=O)c1snc(C(N)=O)c1N (stereo not given)	-2.6%
C[C@@H](CN=[N+]=[N-])CN1CC[C@H](C(C)(C)C)CCC1=O	-1.5%
COc1cccc(CN(C(=O)c2oc3ccc(Br)cc3c2C)C2CCS(=O)(=O)C2)c1 (stereo not given)	-1.0%
COc1cc(OC)cc(C(=O)N2c3ccc(F)cc3CCC2C)c1 (stereo not given)	0.5%
Cc1nc2ccc(NC(=O)C3COc4ccccc4O3)cc2s1 (stereo not given)	8.9%
COc1ccc(CNC(=O)Cc2nn(C)c(=O)c3ccccc23)cc1	-10.2%
O=C1c2ccccc2S(=O)(=O)N1CCCN1C(=O)c2ccccc2S1(=O)=O	-0.1%
COc1cc2c(cc1OC)/C(=C/C(=O)c1ccc(OC)c([N+](=O)[O-])c1)NCC2	-20.2%
Cc1ccc(C)c(N2N=C(C(=O)Nc3cccnc3)CCC2=O)c1	7.0%
COCCNC(=O)C1c2ccccc2C(=O)N(CCOC)C1c1ccc(F)cc1 (stereo not given)	5.0%
O=C(CCc1nnc(C2CCCCC2)o1)N1CCC(Oc2cccnc2)CC1	3.4%
COc1ccccc1CN1CCCC2(CCN(S(=O)(=O)c3ccccc3)CC2)C1	2.3%
C=Cc1ccc(Cn2c(=O)n(CCCOC)c(=O)c3sccc32)cc1	8.0%
O=c1[nH]c2ccccc2nc1/C=C(\O)C1CC1	-21.7%
COc1ccc(N2CCN(CC(=O)c3ccc(O)cc3O)CC2)cc1	-14.1%
N#Cc1cccc(-c2nc(Nc3ccccc3)c3ccccc3n2)c1	-3.8%
O=C(O)c1c2c(nc3ccc(S(=O)(=O)N4CCC(C(=O)NCc5ccccc5Cl)CC4)cc13)CCCC2	-9.4%
CCN(CC)S(=O)(=O)c1cc(NC(=O)COC(=O)c2ccc(NC(=O)CC#N)cc2)ccc1C	32.2%[activator]
CCS(=O)(=O)N1CCC(C(=O)NCc2ccc(F)cc2Cl)CC1	16.1%
O=C(C1CC(c2ccccc2O)=NO1)N1CCCC1 (stereo not given)	13.5%
CCOC(=O)c1c(NC(=O)COc2ccc(Cl)cc2C)sc2c1CCCCC2	?
Cc1ccnc(NC(=O)c2ccccc2NC(=O)c2ccc(Cl)cc2Cl)c1	-3.0%
CC(C)c1ccc(NC(=S)NNC(=O)c2cccs2)cc1	-19.2%

Among those listed so far, these have a thiophene ring, fused or not:
SMILES	VDR inh
C=Cc1ccc(Cn2c(=O)n(CCCOC)c(=O)c3sccc32)cc1	8.0%
CCOC(=O)c1c(NC(=O)COc2ccc(Cl)cc2C)sc2c1CCCCC2	?
CC(C)c1ccc(NC(=S)NNC(=O)c2cccs2)cc1	-19.2%

Other results follow:
SMILES	VDR inh
O=C(Cn1ccc2cc(S(=O)(=O)N3CCCC3)ccc21)NCc1ccco1	-14.0%
Fc1ccccc1COc1ccc(-c2nnn(Cc3ccccc3F)n2)cc1	-15.6%
CCCOC(=O)Cn1cnc2scc(-c3ccc(C)cc3)c2c1=O	1.3%
COc1cc(NC(=O)C2CCN(S(=O)(=O)Cc3ccccc3)CC2)c(OC)cc1Cl	11.0%
COc1ccc(S(=O)(=O)N2CCC(N3CCN(Cc4ccccc4)C(=O)C3=O)CC2)cc1	10.8%
O=C(C1CCC(CNS(=O)(=O)c2ccc(Br)s2)CC1)N1CCN(c2ccccc2)CC1 (stereo not given)	-8.0%
Cc1ccc(C(=O)NN(CCC(=O)NC(C)(C)C)C2=NS(=O)(=O)c3ccccc32)cc1	-17.0%
Cc1cc(C)c(NC(=O)CN(C)S(=O)(=O)c2ccc3c(c2)c(=O)n(C)c(=O)n3C)c(C)c1	13.0%
COCC(=O)N1CCC2(CC1)CCN(c1ccc(-c3ccccc3)cc1)CC2	-8.9%
O=C(O)c1cccc(-c2ccc(/C=c3/sc4nc5ccccc5n4c3=O)o2)c1	-6.3%
CCc1nnc(NC(=O)C2Cc3ccccc3CN2S(=O)(=O)CC)s1 (stereo not given)	4.1%
CN(Cc1ccc2ccccc2c1)C(=O)c1ccc(C(F)(F)F)cc1	4.1%
COc1ccccc1NC(=O)Cn1nnc(-c2ccccc2NS(=O)(=O)c2ccccc2)n1	-4.9%
O=C(NCCN1CCc2ccccc2C1)Nc1ccc(F)cc1	-14.2%
CCCS(=O)(=O)N1CCCC(c2nc(-c3ccc(OC)cc3)no2)C1 (stereo not given)	7.6%
CCCc1ccc(-c2cc(C(=O)N/N=C/c3ccc([N+](=O)[O-])o3)c3ccccc3n2)cc1	2.9%
COc1ccccc1NC(=O)/C(=C\c1cccnc1)NC(=O)c1ccc(C)cc1	12.5%
O=C(Cn1c(=O)oc2cc(S(=O)(=O)N3CCCC3)ccc21)NC1CCCc2ccccc21 (stereo not given)	-0.5%
Cc1nc2sccn2c(=O)c1S(=O)(=O)NCc1ccc(F)cc1	6.0%
Nn1c(C2CCC2)nc2ccccc2c1=O	11.2%
Cc1ccc(-c2csc3ncnc(SCC(=O)O)c23)cc1	-11.3%
C[C@H](CO)N1C[C@H](C)[C@@H](CN(C)S(=O)(=O)c2cccs2)Oc2c(NC(=O)NC3CCCCC3)cccc2C1=O	0.0%
COc1ccc2c(c1)c(CC(=O)Nc1cccc(S(N)(=O)=O)c1)c(C)n2C(=O)c1ccc(Cl)cc1	5.7%
COc1ccc(CCNC(=O)c2cnc3ccc(C)cn3c2=O)cc1	-9.4%
Cn1cnc2cc(NCc3cccs3)ccc21	-10.2%
CC(C)(C)NS(=O)(=O)c1ccc(NC(=O)CS(=O)(=O)Cc2ccccc2)cc1	7.6%
COc1ccc(C2CC(=O)C3=C(C2)Nc2ncnn2C3c2ccccc2C)c(OC)c1 (stereo not given)	-8.3%
NC1=NC(c2ccc(F)cc2)n2c(nc3ccccc32)N1 (stereo not given)	1.7%
COc1cc(Br)c(CN2CCCN(C)CC2)cc1OC	-12.9%
Cc1ccnc(NC(c2ccsc2)c2ccc3ccc(C)nc3c2O)c1 (stereo not given)	39.8µM*
CCn1c(SCC(=O)NC2CC2)nnc1-c1ccc(F)cc1	-6.6%
O=C(Nc1ccc([N+](=O)[O-])cc1)NN1CCCCCC1	-13.9%
Cc1cc(Oc2ccc(-c3ccccc3)cc2)nc(N2CCOCC2)n1	0.2%
COc1ccc(OC)c(NC(=O)C2CCCN(S(=O)(=O)c3cccc4nonc34)C2)c1 (stereo not given)	19.4%
Cc1cc2ccccc2n1CCNC(=O)Cc1ccccc1	-14.7%
Cc1ccc(CSC2=NS(=O)(=O)c3ccccc32)cc1	31.6µM*
O=C1ON=C(c2ccccc2)/C1=C/c1ccco1	?
COc1ccccc1N1CCN(C2CC(=O)N(c3ccccc3)C2=O)CC1 (stereo not given)	-16.3%
CCn1c(=O)n(CC)c2cc(NC(=O)c3ccccc3Cl)ccc21	-21.8%
Cc1nnc2c(N3CCN(c4ccccc4F)CC3)nc3ccc(C(=O)c4ccccc4)cc3n12	0.2%
Cc1nc2nc(SCC(=O)NCCN3CCOCC3)nn2c(C)c1Cc1ccccc1	4.0%
COc1ncc2ncc(=O)n(Cc3cccs3)c2n1	?
CCC(C)NC(=O)c1ccccc1NC(=O)/C(=C/c1ccc(OC)cc1)c1ccccc1 (stereo not given)	-15.6%
NC(=O)CSc1nnc(NC(=O)c2ccc3ccccc3c2)s1	4.2%
O=C(COC(=O)/C=C/c1ccc([N+](=O)[O-])cc1)Nc1ccc2[nH]c(=O)[nH]c2c1	10.2%
COC(=O)c1ccc(NC(=S)NCCc2ccc(OC)cc2)cc1	-21.6%
Cc1nnc(SCC(=O)N2CCN(c3ccccc3)CC2)n1-c1ccccc1	2.9%
CCOC(=O)c1sc(NC(=O)CSc2nccn2C)nc1C	2.8%
CCN(CC)CCN(C(=O)c1cc2ccccc2cc1OC)c1nc2ccc(OC)cc2s1	-6.6%
Cc1ccc(C)c(NC(=O)C(=O)NCCc2csc(-c3cccc(F)c3)n2)c1	5.5%
CCC1CCCCN1CCCNC(=O)c1csc2c1CCCCC2 (stereo not given)	-4.9%
O=C(CN(Cc1ccccc1F)C(=O)Cn1nnc(-c2cccs2)n1)NC1CCCCC1	12.7%
O=S(=O)(CCc1nc2ccccc2s1)c1ccc(Cl)cc1	2.2%
CCN1CCC(NC(=O)Nc2cc(Cl)ccc2OC)CC1	-0.4%
COc1ccccc1C(=O)c1cc2ccc(O)cc2oc1=O	-7.7%
Cc1c(NC(=O)Nc2ccc3c(c2)OCO3)c(=O)n(-c2ccccc2)n1C	4.0%
COc1ccc(C)cc1N(C(=O)COc1ccccc1)c1nc2ccccc2s1	-2.7%
COc1cc(CC(=O)Nc2cccc(C(F)(F)F)c2)cc(OC)c1OC	11.3%
COc1ccc(/C=C(\NC(=O)c2ccc([N+](=O)[O-])cc2)C(=O)NCCN2CCOCC2)cc1	-5.3%
Cc1c(NC(=O)C2(c3ccccc3)CCCC2)c(=O)n(-c2ccccc2)n1C	-8.6%

Reprinted from the part before: 3 compounds, then new ones.
SMILES	VDR inh
COc1cc(CC(=O)Nc2cccc(C(F)(F)F)c2)cc(OC)c1OC	11.3%
COc1ccc(/C=C(\NC(=O)c2ccc([N+](=O)[O-])cc2)C(=O)NCCN2CCOCC2)cc1	-5.3%
Cc1c(NC(=O)C2(c3ccccc3)CCCC2)c(=O)n(-c2ccccc2)n1C	-8.6%
CC1Sc2ccc(S(=O)(=O)NCCc3ccc(S(N)(=O)=O)cc3)cc2NC1=O (stereo not given)	-11.0%
CN(CC(=O)Nc1ccc(Cl)c(Cl)c1)C(=O)C1CCCC1	-11.5%
CS(=O)(=O)Nc1ccc(C(=O)Nc2ccccc2-c2ccccc2)cc1	-29.9%
O=C(NNS(=O)(=O)c1ccccc1)c1ccc(F)cc1	-7.7%
CCCCCCCCn1c(=O)c(C(=O)OCC)c(O)c2ccccc21	-2.4%
CC(=O)Nc1ccc(-c2csc(NC(=O)C3CCN(S(=O)(=O)c4cccs4)CC3)n2)cc1	3.5%
CC(=O)Nc1ccc(S(=O)(=O)N(CCc2ccccc2)CC(=O)N/N=C/c2ccc(C(=O)O)cc2)cc1	-7.6%
COc1ccccc1N1CC(C)C(=O)NC1=S (stereo not given)	-0.8%
Cc1cccc2cc(CN(CC3CCCO3)C(=O)c3cccnc3)c3nnnn3c12 (stereo not given)	-5.7%
CSc1nc(NC2CCCC2)c([N+](=O)[O-])c(NC2CCCC2)n1	7.2%&-12.2%
COc1ccc(C(=O)NC(=S)Nc2ccccc2[N+](=O)[O-])cc1OC	5.4%
Cc1ccc(NS(=O)(=O)c2ccc(C(=O)OCC(=O)NCC3CCCO3)cc2)cc1 (stereo not given)	4.4%
Cc1cc(=O)[nH]c2nnc(SCC(=O)N3CC(C)OC(C)C3)n12 (stereo not given)	9.4%
COc1cccc(NC(=O)COc2ccccc2)c1	-6.0%
CCN(CCCNC(=O)c1ccc(Sc2ccc(F)cc2)c(NC(C)=O)c1)c1ccccc1	14.9%
CCCc1nnc(NC(=O)c2c(O)c3c([nH]c2=O)CCCC3)s1	5.8%
COc1ccc(NCc2nc3ccccc3n2CCOc2ccc(C)cc2)cc1	-16.2%&-19.8%
O=C(Cn1[nH]c(=O)c2ccccc2c1=O)NCCN1C(=O)S/C(=C\c2ccccc2)C1=O	-5.8%
CN1CCN(c2ncnc3ccc(-c4ccoc4)cc23)CC1	44.7µM*
CCCOC1(C(F)(F)F)NC(=O)N(c2cccc(Cl)c2)C1=O (stereo not given)	16.4%

3 of the entries above in order of the VDR inh value, largest number first.
Molecule | VDR inh
CCCOC1(C(F)(F)F)NC(=O)N(c2cccc(Cl)c2)C1=O (stereo not given) | 16.4%
COc1ccccc1N1CC(C)C(=O)NC1=S (stereo not given) | -0.8%
CC(=O)Nc1ccc(S(=O)(=O)N(CCc2ccccc2)CC(=O)N/N=C/c2ccc(C(=O)O)cc2)cc1 | -7.6%

Structures above marked active in VDR inh:
SMILES	VDR inh
Cc1ccnc(NC(c2ccsc2)c2ccc3ccc(C)nc3c2O)c1 (stereo not given)	39.8µM*
Cc1ccc(CSC2=NS(=O)(=O)c3ccccc32)cc1	31.6µM*
CN1CCN(c2ncnc3ccc(-c4ccoc4)cc23)CC1	44.7µM*

Source: PubChem (National Center for Advancing Translational Sciences (NCATS))

Some of the compounds tested; count on the stated rates, not on these rows.
